TRPV1 PAM: potentiators of human vanilloid receptor 1 (TRPV1); 320,000 compounds, 0.02% hits; Q8NER1; potentiation, % at 8.33 µM; TRPV1-expressing cells, Fluo-8 calcium influx, capsaicin EC20 potentiation; host cell line not named in the record; control for the full effect not named in the record; active means potentiation above 80%; inconclusive means 30% to 80%; inactive means below 30%; note: 0% is about no effect
Target sequence (Q8NER1 whole entry, looked up): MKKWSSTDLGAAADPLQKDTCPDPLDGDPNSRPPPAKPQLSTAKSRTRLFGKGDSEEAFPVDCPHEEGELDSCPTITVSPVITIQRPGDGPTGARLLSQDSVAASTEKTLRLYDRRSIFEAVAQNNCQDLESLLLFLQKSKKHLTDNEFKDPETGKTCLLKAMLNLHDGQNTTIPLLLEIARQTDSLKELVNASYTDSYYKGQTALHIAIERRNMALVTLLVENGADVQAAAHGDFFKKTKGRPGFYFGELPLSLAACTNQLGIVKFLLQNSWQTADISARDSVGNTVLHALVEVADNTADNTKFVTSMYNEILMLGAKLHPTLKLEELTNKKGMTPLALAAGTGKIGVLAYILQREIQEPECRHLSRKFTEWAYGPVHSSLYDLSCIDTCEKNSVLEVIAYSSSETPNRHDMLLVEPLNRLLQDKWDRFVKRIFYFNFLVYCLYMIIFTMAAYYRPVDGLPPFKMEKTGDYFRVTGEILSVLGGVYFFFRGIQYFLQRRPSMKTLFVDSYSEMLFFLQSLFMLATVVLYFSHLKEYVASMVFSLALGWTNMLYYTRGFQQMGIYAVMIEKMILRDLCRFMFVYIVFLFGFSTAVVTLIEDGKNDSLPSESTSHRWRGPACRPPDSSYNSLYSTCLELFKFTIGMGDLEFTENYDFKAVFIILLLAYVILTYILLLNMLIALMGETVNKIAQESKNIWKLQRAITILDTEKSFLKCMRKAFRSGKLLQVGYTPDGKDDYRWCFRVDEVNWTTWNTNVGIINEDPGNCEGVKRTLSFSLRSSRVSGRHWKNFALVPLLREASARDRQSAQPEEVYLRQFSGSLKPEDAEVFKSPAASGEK
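TRPV1-expressing cells were cultured overnight at 35.5C and loaded with Fluo-8 calcium dye for 40 to 90 min at room temperature. After a 10 s baseline, compound was added and calcium influx was read kinetically for 3 min (ex 480/em 520 nm).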
gsp antagonist: antagonists of gsp mutant (McCune-Albright syndrome); Potency, µM (doses to about 76.9 µM), for the others: top-dose activity change, negative = inhibition, usual class: inhibitors; AID 624288; 340,000 compounds, 0.4% hits; gsp-mutant cells, cAMP HTRF, 30 min; control for the full effect not named in the record; active = falling curve of any shape with a large fitted effect; inconclusive = falling curve, mostly with a smaller effect; inactive = flat or rising curve; cell line not stated here;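 note: intracellular cAMP measured with PDE inhibitor Ro 20-1724 present during compound exposure; potency is the fitted concentration of half-maximal effect; % is set by controls: 0 for no effect and ±100 for the full control effect; nearly all actives have a fitted effect of over 65% in size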
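HTRF cAMP measurement after 30 min RT detection following 30 min, 37C compound treatment alongside […] (added as 300 uM solution) in G418-selected cells seeded at 2000/well and grown 16–24 h.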
Menin MLL FP FL: menin-MLL binding inhibition, fluorescein peptide. FP activity change, % at 61.4 µM. AID 1766. Fluorescence polarization, fluorescein-MLL peptide displacement from menin. 290,000 tested, under 10 active; inconclusive = falling polarisation curve, or a change in total fluorescence; inactive = total fluorescence flat and polarisation flat or rising; no compound was filed as active; the % refers to the polarisation; negative = inhibition;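 note: % of control where 0% means no effect; inhibitors lower the polarisation; unlabelled MLL peptide was the positive control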
Sfp PPTase inh: Sfp phosphopantetheinyl transferase inhibition; Potency, µM, for inactives: max response, negative = inhibition, hits mostly inhibitors; Q9F4F7; Biochemical Sfp PPTase activity, qHTS; 310,000 compounds, 3.5% hits; active = well fitted inhibition curve with a large enough effect; inconclusive = small, poorly fitted or top-dose-only effect, or another doubt; inactive = no such curve, though single readings can be large or run the other way;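 note: the enzyme is Sfp with the accession as filed and its product quenches rhodamine fluorescence; potency is the fitted concentration of half-maximal effect; 0% = enzyme reaction without inhibitor and -100% = no enzyme wells; top concentration of the series not given in the record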
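Reaction rates are the 30-min fluorescence difference (ex 525, em 598 nm) in wells containing 15 nM Sfp, 5 uM rhodamine-CoA and 12.5 uM BHQ-2-YbbR at pH 7.6 with 10 mM MgCl2.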
ClpP mod: qHTS Assay for Activators of ClpP | ATP-dependent Clp protease proteolytic subunit (Bacillus subtilis (strain 168)), P80244 | purified B. subtilis ClpP, FRET peptide cleavage, 20 min | Potency, µM (titrated, usually from 57.5 µM), for inactives: top-dose activity change, negative = active | 340,000 compounds, 1.9% hits | AID 651965, 2013; active = well fitted falling curve with a large enough effect; inconclusive = small, poorly fitted or top-dose-only effect; inactive = no such curve, though single readings can be large or run the other way; note: potency is the fitted concentration of half-maximal effect; the source files actives as falling curves though it sought activators and does not explain the sign; nearly all actives have a fitted effect of over 65% in size; many hits overshoot -100%
Target sequence (P80244 whole entry, looked up): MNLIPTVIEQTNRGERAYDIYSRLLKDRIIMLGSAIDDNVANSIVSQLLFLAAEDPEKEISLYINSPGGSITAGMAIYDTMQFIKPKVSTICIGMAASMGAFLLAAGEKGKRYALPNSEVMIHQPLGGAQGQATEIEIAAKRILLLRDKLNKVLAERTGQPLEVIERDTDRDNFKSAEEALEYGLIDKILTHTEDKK
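Buffer: 100 mM Tris/HCl pH8, 100 mM KCl, 0.05% low protease BSA, 2.5% glycerol, 0.01% Tween-20. ClpP 10 microg/mL final; 20 min RT; delta FRET normalized to ADEP and DMSO controls.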
CtBP-E1A blk: CtBP/E1A binding inhibition | 340,000 compounds, 0.49% hits | AlphaScreen GST-E1A/His-CtBP binding, 1536-well; hits give low values; control for the full effect not named in the record | AID 651724 | activity change, % (no concentration beside the values); in the data active means activity change below about -65%; inconclusive means about -30% to -65%; inactive means above about -30%; note: % is set by controls: 0 for no effect and ±100 for the full control effect
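Homogeneous bead-based format: GST-tagged E1A captured on glutathione donor beads, His-tagged CtBP on nickel acceptor beads; compounds precede bead addition by 2 h at 37 °C.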
gsp ag: gsp mutant agonism; 340,000 compounds, 0.13% hits; Potency, µM (titrated, usually from 76.9 µM), inactives show at the highest dose activation (cAMP increase), actives largely listed as activators; gsp mutant cells, cAMP HTRF, 30 min; control for the full effect not named in the record; active = well fitted activation curve with a large enough effect; inconclusive = small, poorly fitted or top-dose-only effect, or another doubt; inactive = no such curve, though single readings can be large or run the other way; cell line not stated here;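 note: phosphodiesterase inhibitor Ro 20-1724 added with compounds to block cAMP breakdown; potency is the fitted concentration of half-maximal effect; nearly all actives have a fitted effect of over 60% in size; about a fifth of the inactives were tested at one dose only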
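Cells in DMEM/10% FBS with G418 were pretreated with compounds in DMSO plus […] (300 uM stock) for 30 min at 37C. cAMP was measured by HTRF (cAMP-d2 plus anti-cAMP antibody-K) after 30 min at room temperature.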
The depositor's hits bear a star; ? = inconclusive; nt = not tested or not shown; & = joins results of further samples; [ ] = remark or other dose. Not a hit list; about 5.3% have a hit in one of these screens.

SMILES	TRPV1 PAM	gsp antagonist	Menin MLL FP FL	Sfp PPTase inh	ClpP mod	CtBP-E1A blk	gsp ag
Cc1ccc(Oc2ccc(C=O)cn2)cc1	-12	11%	-0.3	10%	nt	nt	-6%[15.4 µM]
CCC1(CC)CNC(=O)NC1	nt	-2%	nt	nt	nt	8	9%
O=C(O)c1c(Cl)cccc1Cl	8	0%	nt	nt	2.8%	3	nt
COc1ccc(OC)c(C(Nc2ccccc2)P(=O)(OC(C)C)OC(C)C)c1 (stereo not drawn)	-3	1%	0.8	13%	-0.3%	0	9%[15.4 µM]
COCCn1c(=O)[nH]c2cc(C(=O)Nc3cc(C)cc(C)c3)ccc2c1=O	5	-12%	0.6	13%	nt	-8	-3%
CC1=C(C#N)C(c2cn(-c3ccccc3)nc2-c2cccs2)C(C#N)=C(C)N1	-12	-21%	10	-4%	35µM*	-10	-5%
CCOc1ccc(CCNC(=O)c2oc3c(c2C)-c2[nH]ncc2CC3)cc1OCC	19	-13%	3.1	4%	-13%	0	-65%[inhibitor]
CC1(C)Cc2c(sc(NC(=O)c3ccco3)c2C#N)C(C)(C)N1	-4	8%	-0.3	5%	-2.6%	5	-1%
O=C(CSCc1cc(=O)n2ccsc2n1)Nc1ccccc1	29	8%	nt	2%	-1.3%	4	14%
CC(C)CC(CO)NS(=O)(=O)c1cccc(Cl)c1F (stereo not drawn)	nt	8%	nt	nt	-3.6%	2	nt
CC(C)COC(=O)NC1c2ccccc2Oc2ccccc21	14	4%	-3.4	-2%	nt	2	16%[15.4 µM]
COc1ccc(NC(=O)/C(C#N)=C\c2ccc(OCc3ccc(C(=O)O)cc3)c(OC)c2)cc1	9	-24%	6.4	6%	nt	-20	-4%[15.4 µM]
COc1ccc(C(CNC(=O)c2ccc(S(=O)(=O)N(C)C)cc2)N(C)C)cc1 (stereo not drawn)	3	12%	-1.1	5%	nt	3	25%
COc1ccc(NC(=O)CCNC(=O)c2ccc([N+](=O)[O-])cc2)cc1S(=O)(=O)N1CCOCC1	8	9%	nt	nt	-1.6%	3	-43%[inhibitor]
O=C(O)CCCn1cc(NC(=O)COc2cccc(Cl)c2)cn1	1	11%	-7.3	13%	-5.3%	-9	-173%[inhibitor]
COc1cc(C(=O)NCc2nnc(SCC(=O)NCCc3ccccc3)o2)cc(OC)c1OC	-9	-2%	nt	2%	-3.4%	-6	2%
O=c1c2ccccc2ncn1C1CCCCC1	-16	11%	0.2	7%	-6.0%	4	-5%
COc1cc(NC(=O)C2CCCN2S(=O)(=O)c2ccc3c(c2)CC(C)N3C(C)=O)cc(OC)c1 (stereo not drawn)	-2	1%	-1.0	11%	0.6%	1	?
CC(C)(C)CC(C)(C)n1nnnc1N	nt	13%	nt	nt	nt	11	29%
O=C(O)C1=C[C@H](C2CC2)C[C@H](OCc2ccc(CO)cc2)O1	nt	4%	nt	nt	1.5%	4	nt
CCN1CCN(C(=O)CCN2C(=O)c3ccccc3S2(=O)=O)CC1	3	-12%	nt	nt	-3.4%	-20	19%
CON(C)c1nc(OCC#N)nc(N(C)C)n1	29	12%	0.4	5%	nt	5	10%[15.4 µM]
COc1ccc(C)cc1N(C(=O)c1ccco1)C(C(=O)NC1CCCC1)c1cc(OC)c(OC)c(OC)c1 (stereo not drawn)	4	-2%	nt	2%	nt	-6	15%[15.4 µM]
CC(C)N1C(=O)CN(C2CCCCCC2)C(=O)C1c1ccccc1F (stereo not drawn)	-7	8%	3.1	-9%	0.0%	6	-2%
CN1C(=O)/C(=C/c2ccccc2OCc2ccccc2F)NC1=S	-10	-11%	-0.1	6%	-4.2%	8	13%

Shown in markdown: entries from further up
| SMILES | TRPV1 PAM | gsp antagonist | Menin MLL FP FL | Sfp PPTase inh | ClpP mod | CtBP-E1A blk | gsp ag |
| --- | --- | --- | --- | --- | --- | --- | --- |
| Cc1ccc(Oc2ccc(C=O)cn2)cc1 | -12 | 11% | -0.3 | 10% | nt | nt | -6%[15.4 µM] |
| CCC1(CC)CNC(=O)NC1 | nt | -2% | nt | nt | nt | 8 | 9% |
| O=C(O)c1c(Cl)cccc1Cl | 8 | 0% | nt | nt | 2.8% | 3 | nt |
| COc1ccc(OC)c(C(Nc2ccccc2)P(=O)(OC(C)C)OC(C)C)c1 (stereo not drawn) | -3 | 1% | 0.8 | 13% | -0.3% | 0 | 9%[15.4 µM] |
| COCCn1c(=O)[nH]c2cc(C(=O)Nc3cc(C)cc(C)c3)ccc2c1=O | 5 | -12% | 0.6 | 13% | nt | -8 | -3% |
| CC1=C(C#N)C(c2cn(-c3ccccc3)nc2-c2cccs2)C(C#N)=C(C)N1 | -12 | -21% | 10 | -4% | 35µM* | -10 | -5% |
| CCOc1ccc(CCNC(=O)c2oc3c(c2C)-c2[nH]ncc2CC3)cc1OCC | 19 | -13% | 3.1 | 4% | -13% | 0 | -65%[inhibitor] |
| CC1(C)Cc2c(sc(NC(=O)c3ccco3)c2C#N)C(C)(C)N1 | -4 | 8% | -0.3 | 5% | -2.6% | 5 | -1% |
| O=C(CSCc1cc(=O)n2ccsc2n1)Nc1ccccc1 | 29 | 8% | nt | 2% | -1.3% | 4 | 14% |
| CC(C)CC(CO)NS(=O)(=O)c1cccc(Cl)c1F (stereo not drawn) | nt | 8% | nt | nt | -3.6% | 2 | nt |
| CC(C)COC(=O)NC1c2ccccc2Oc2ccccc21 | 14 | 4% | -3.4 | -2% | nt | 2 | 16%[15.4 µM] |
| COc1ccc(NC(=O)/C(C#N)=C\c2ccc(OCc3ccc(C(=O)O)cc3)c(OC)c2)cc1 | 9 | -24% | 6.4 | 6% | nt | -20 | -4%[15.4 µM] |
| COc1ccc(C(CNC(=O)c2ccc(S(=O)(=O)N(C)C)cc2)N(C)C)cc1 (stereo not drawn) | 3 | 12% | -1.1 | 5% | nt | 3 | 25% |
| COc1ccc(NC(=O)CCNC(=O)c2ccc([N+](=O)[O-])cc2)cc1S(=O)(=O)N1CCOCC1 | 8 | 9% | nt | nt | -1.6% | 3 | -43%[inhibitor] |
| O=C(O)CCCn1cc(NC(=O)COc2cccc(Cl)c2)cn1 | 1 | 11% | -7.3 | 13% | -5.3% | -9 | -173%[inhibitor] |

The list continues.
SMILES	TRPV1 PAM	gsp antagonist	Menin MLL FP FL	Sfp PPTase inh	ClpP mod	CtBP-E1A blk	gsp ag
Cc1ccc(C(=O)NN2C(=O)C3C4c5ccccc5C(c5ccccc54)C3C2=O)cc1 (stereo not drawn)	-3	0%	2.5	6%	0.9%	1	-1%
COc1ccc(CC(C)CC(=O)NCCc2ccc(OC)c(OC)c2)cc1 (stereo not drawn)	-38	3%	-6.1	6%	0.4%	nt	?
Cc1cccn2c(=O)c3cc(C(=O)N4COCC4(C)C)sc3nc12	-8	0%	-4.1	-2%	4.0%	nt	-151%[inhibitor]
Cc1ccnc2nc(C(=O)OCC(=O)N3CCc4ccccc43)nn12	-8	3%	-0.3	14%	-0.2%	nt	14%
Cc1ccc(NC(=O)N2CCCC2C(=O)NCC2CCCO2)cc1 (stereo not drawn)	-8	1%	-7.5	9%	1.2%	-4	10%
CCCCn1c(SCC(=O)NCc2ccco2)nc2c1c(=O)n(C)c(=O)n2C	?	-4%	2.1	-6%	-9.9%	-8	-9%
O=C(Nc1c2c(nn1-c1ccc([N+](=O)[O-])cc1)CS(=O)(=O)C2)c1ccco1	5	-6%	-4.4	11%	0.6%	2	22%
O=C(CN1C(=O)/C(=C/c2ccccc2)SC1=S)N1CCN(CCc2ccccn2)CC1	2	-39%	-1.9	-10%	2.1%	-3	?
CC(=O)NC1(C(F)(F)F)C(=O)Nc2c1c(=O)[nH]c(=O)n2CCc1ccccc1 (stereo not drawn)	6	-7%	5.5	16%	-5.0%	nt	5%
Nc1cc(C(F)(F)F)ccc1OCC1CCCO1 (stereo not drawn)	-15	0%	-4.0	12%	-0.3%	17	11%
O=C(/C=C/c1ccc(O)c(O)c1)O[C@@H]1C[C@](O)(C(=O)O)C[C@@H](O)[C@H]1O	4&3	1%&17%	nt	nt	-8.5%&-5.2%	-13&3	nt
C(=N\N1CCN(C2c3ccccc3-c3ccccc32)CC1)/c1cccnc1	5	-14%	4.5	?	-0.8%	?	9%
CC(C)(C)c1ccc(NC(=O)COC(=O)CCc2nc3ccccc3c(=O)[nH]2)cc1	-12	6%	5.8	-1%	1.9%	-4	-2%[15.4 µM]
O=C(C=Cc1cccs1)c1ccc(Cl)s1	nt	2%	nt	nt	nt	3	12%
CC(NC(=O)Nc1ccccc1C(F)(F)F)C1CCCO1 (stereo not drawn)	6	2%	0.8	17%	-3.6%	-16	10%
COC(=O)c1ccccc1OCC(=O)N1CCN(c2ccc(OC)cc2)CC1	?	-1%	3.4	2%	-0.6%	3	27%
CN1CCN(NC(=O)c2cn(-c3ccccc3)nc2-c2cccs2)CC1	15	22%	6.3	0%	1.2%	nt	3%
Cc1nc2c3ccccc3nc(NNC(=O)CCC(=O)NCCC(C)C)n2n1	5	10%	-1.7	-5%	1.4%	-2	54%[15.4 µM]
COC(=O)c1nnn(-c2nonc2N)c1COc1ccc(C=O)cc1OC	-1	-2%	2.3	-8%	-6.3%	nt	0%
Cc1c(CCC(=O)N2CCC(C(=O)O)(c3ccccc3)CC2)c(=O)oc2cc3oc4c(c3cc12)CCCC4	10	?	1.7	9%	4.3%	-9	nt
CCOCCCNC(=O)CCNC(=O)c1cc(OC)c(OC)c(OC)c1	-1	-13%	0.9	3%	-0.4%	4	16%
CN1C(=O)/C(=C2\SC(=S)N(CC3CCCO3)C2=O)c2ccccc21 (stereo not drawn)	-1	nt	0.7	19%	nt	nt	nt
CC(=O)c1ccc(NC(=O)C2CCCC2)cc1	-21	-3%	-2.0	18%	-0.4%	-6	-19%
COc1ccc(C(=O)CC(=O)O)c2c1C=CC(C)(C)O2	-24	2%	2.5	-3%	-5.5%	-1	10%
CCOC(=O)c1c(C)nc2sc3c(=O)n(-c4ccc(C(C)=O)cc4)cnc3c2c1-c1ccc(Cl)cc1	9	6%	1.7	?	-19%	2	14%
COc1ccc(C/C(N)=N/OC(=O)Cc2ccccc2)cc1OC	-17	6%	3.3	0%	1.6%	5	16%
